Compound activity as filed in PubChem.
TDP1 block: inhibitors of human tyrosyl-DNA phosphodiesterase TDP1; Q9NUW8; recombinant TDP1, AlphaScreen DNA substrate cleavage; Potency, µM (highest dose often 130 µM), without a hit: at the highest dose activity change, negative = inhibition, actives largely listed as inhibitors; hit rate 0.28% among 350,000; note: nearly all actives have a fitted effect of over 40% in size
Target sequence (Q9NUW8 whole entry, looked up): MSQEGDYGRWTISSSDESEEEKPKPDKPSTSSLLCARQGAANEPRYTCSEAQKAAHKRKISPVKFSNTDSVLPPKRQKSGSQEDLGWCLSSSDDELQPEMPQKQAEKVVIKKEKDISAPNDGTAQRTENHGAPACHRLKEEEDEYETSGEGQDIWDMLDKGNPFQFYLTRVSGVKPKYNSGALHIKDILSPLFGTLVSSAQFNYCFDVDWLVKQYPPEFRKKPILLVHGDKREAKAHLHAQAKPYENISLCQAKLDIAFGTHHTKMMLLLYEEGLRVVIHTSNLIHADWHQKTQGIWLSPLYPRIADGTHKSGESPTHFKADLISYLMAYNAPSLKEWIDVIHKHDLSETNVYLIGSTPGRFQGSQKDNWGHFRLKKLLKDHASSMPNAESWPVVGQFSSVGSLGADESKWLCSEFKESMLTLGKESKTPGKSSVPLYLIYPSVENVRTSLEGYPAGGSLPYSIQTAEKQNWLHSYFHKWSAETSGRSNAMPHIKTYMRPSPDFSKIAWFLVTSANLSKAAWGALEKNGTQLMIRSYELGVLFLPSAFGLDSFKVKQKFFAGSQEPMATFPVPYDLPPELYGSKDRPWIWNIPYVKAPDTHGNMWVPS
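E. coli-derived human Tdp1, 1 nM final. Cpd preinc 15 min RT; substrate 15 nM final, 5 min RT; AS bead mix 10 ug/ml final, 10 min RT. Signal loss = tyrosine-FITC cleavage. No-enzyme wells = max signal.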
N370S GC mod: inhibitors or activators of N370S glucocerebrosidase for Gaucher disease. hit rate 0.092% among 330,000. Potency, µM (top dose mostly 59.4 µM), without a hit: top-dose activity change, negative = inhibition, most hits filed as inhibitors. N370S GC spleen homogenate, 4MU-glucoside fluorescence. P04062;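 note: 0% = full enzyme activity and -100% = no enzyme basal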
* hit, by the source's call; nt = not tested or not shown; & = joins results of further samples; [ ] = remark or other dose. Calls come from the whole dose curve; as a rule, active = well fitted curve in the direction sought with a large enough effect; inconclusive = small, poorly fitted or top-dose-only effect, or another doubt; inactive = no such curve, though single readings can be large; an effect the other way counts as inactive or inconclusive. Unless noted, % is set by controls: 0 for no effect and ±100 for the full control effect; potency is the fitted concentration of half-maximal effect. An excerpt, and most or all hits are left out here.

SMILES	TDP1 block	N370S GC mod
COc1ccc(Cl)cc1NC(=O)CN(C)C(C)C(=O)NCC1CCCCC1 (stereo unspecified)	3.8%	25.2%
O=C(Nc1ccc2snnc2c1)Nc1cccc2ccccc12	0.0%	-0.6%
C=CCNc1nc(Nc2ccc(Cl)cc2)nc(OC)n1	5.3%	2.6%
O=C(NC1CCCCCC1)c1ccc(S(=O)(=O)NCc2ccco2)cc1	0.9%	0.4%
CC[N+]1(CC)CC2=Cc3c(ccc4ccccc34)C(C)C2C1 (stereo unspecified)	4.8%	-1.6%
O=C(CCN1CCN(c2ccccc2)CC1)NNC(=S)Nc1ccccc1Cl	2.7%	-5.0%
COc1ccc(C(=O)N(Cc2ccccc2)c2cccc(C)c2)cc1	-1.3%	-2.0%
O=C(c1ccncc1)N1CCN(S(=O)(=O)c2cc(C(F)(F)F)cc(C(F)(F)F)c2)CC1	nt	5.8%
O=C(COc1ccc(Br)cc1)NCCO	4.5%	14.8%
CCOc1ccccc1C1C(C#N)=C(N)Oc2cc(N)ccc21 (stereo unspecified)	5.6%	15.8%
Cc1ccccc1CNC(=O)c1ccc(NC(=O)N2CCCCc3ccccc32)cc1	0.6%	nt
Cc1cnc(NS(=O)(=O)c2ccccc2)c(C)n1	nt	-3.2%

Some of the entries above in a different format:
| Compound | TDP1 block | N370S GC mod |
| --- | --- | --- |
| C=CCNc1nc(Nc2ccc(Cl)cc2)nc(OC)n1 | 5.3% | 2.6% |
| O=C(NC1CCCCCC1)c1ccc(S(=O)(=O)NCc2ccco2)cc1 | 0.9% | 0.4% |
| CC[N+]1(CC)CC2=Cc3c(ccc4ccccc34)C(C)C2C1 (stereo unspecified) | 4.8% | -1.6% |
| O=C(CCN1CCN(c2ccccc2)CC1)NNC(=S)Nc1ccccc1Cl | 2.7% | -5.0% |
| COc1ccc(C(=O)N(Cc2ccccc2)c2cccc(C)c2)cc1 | -1.3% | -2.0% |

The list goes on:
SMILES	TDP1 block	N370S GC mod
CCC1=C(OC(=O)N(CC)CC)N2C(=O)OC(=NCC3CC3)[C@]2(Cc2ccccc2)[C@H]2C1=CC[C@H]1C(=O)N(C)C(=O)[C@H]12	4.5%&2.4%	-10.5%&-0.2%
COc1ccc2oc(C(=O)N3CCN(C(=O)c4ccco4)CC3)c(C)c2c1	0.3%	-6.9%
O=C(c1ccc(S(=O)(=O)Nc2ccccc2)cc1)N1CCCCCCC1	6.1%	-3.3%
COc1ccc(-c2nnc(SCC(=O)Oc3ccc(C)cc3)o2)cc1	0.0%	2.8%
Cc1nn(CC(=O)N2CCN(Cc3ccccc3)CC2)c(=O)c2ccccc12	-9.5%	22.4%
COc1ccc(CN2C(=O)c3ccccc3C2=O)cc1	nt	3.4%
COc1cccc(NC(=O)Cn2c(=O)n(CCC(=O)NCc3ccco3)c(=O)c3ccccc32)c1	1.6%	-20.4%
Cn1nnnc1SCc1nc2scc(-c3ccc(Cl)cc3)c2c(=O)[nH]1	nt	-5.7%
COc1cc2oc(=O)ccc2c(OC)c1CC(O)C(C)(C)O (stereo unspecified)	0.0%	7.0%
CC(NC(=O)c1cc(COc2cccc(C(F)(F)F)c2)on1)c1nccs1 (stereo unspecified)	0.6%	-2.8%
COc1cccc(CCc2nnc(CCC(=O)N3CCCC3c3nccs3)o2)c1 (stereo unspecified)	7.3%	2.0%
Cc1ccccc1NC(=O)CSCc1cc(=O)n2ccsc2n1	0.5%	-10.7%
CC(=O)c1ccc(NS(=O)(=O)c2ccc(C)cc2)cc1	5.7%	17.6%
CCC(=O)NC(=S)Nc1cccc(NC(=O)c2ccco2)c1	-7.4%	8.5%
O=C(NNS(=O)(=O)c1ccccc1[N+](=O)[O-])c1ccncc1	-5.3%	-7.4%
CC1CCCN(S(=O)(=O)c2cc3c4c(c2)CCN4C(=O)CC3)C1 (stereo unspecified)	nt	2.6%
COCCCNC(=O)c1ccc2c(=O)n(Cc3ccccc3OC)c(=S)[nH]c2c1	nt	-6.2%
COc1ccc(NC(=O)C2CCC(=O)N2S(=O)(=O)c2ccc(C)cc2)c(OC)c1 (stereo unspecified)	3.1%	-3.9%
CC(=O)CC1(O)C(=O)Nc2ccccc21 (stereo unspecified)	5.5%	-1.2%
Cc1cccc(C)c1NC(=O)c1cnccn1	2.8%	-4.1%
O=C(CN1CCC(n2cnc3cc(F)ccc32)CC1)Nc1ccccc1Br	4.9%	8.6%
Cc1cc(CN(C)C(=O)C2CCC(=O)N(CCc3cccc(F)c3)C2)on1 (stereo unspecified)	3.1%	-0.9%
COc1ccc(-c2noc(CCC(=O)N(C)c3cccc(C)c3)n2)cc1	-3.6%	19.9%
O=C(Nc1cccc(Cl)c1)OCc1cn(-c2ccccc2)nn1	5.9%	3.4%
Cc1ccc(N(Cc2ccccc2)C(=O)c2ccc(F)c(S(=O)(=O)N3CCOCC3)c2)cc1	6.1%	6.2%
Cc1csc2ncc(C(=O)N3CCCc4ccccc43)c(=O)n12	4.3%	-3.3%
COc1ccc(Cn2c(=O)[nH]c3cc(C(=O)N4CCN(c5ccc(C(C)=O)cc5)CC4)ccc3c2=O)cc1	3.8%	-2.8%
CC(=O)N1CCN=C1SCc1cccc(C)c1	0.9%	-5.1%
CCC(C(=O)NCCC(C)C)N(Cc1ccccc1Cl)C(=O)c1snc(C(N)=O)c1N (stereo unspecified)	0.8%	-0.7%
CCOC(=O)c1c(NC(=O)c2ccc(F)cc2)sc2c1CCC(CC)C2 (stereo unspecified)	-1.3%[12.3 µM]	nt
O=S(=O)(NCc1ccccc1)c1cccc2nsnc12	-5.6%	-8.2%
CCC(C)(C)n1nnnc1C(C(C)C)N1CCC(C(N)=O)CC1 (stereo unspecified)	0.0%	6.3%
COc1cccc(C(=O)NCc2ccc(N3CCN(C(=O)OC(C)(C)C)CC3)cc2)c1	0.0%	3.2%
COc1ccc(OCCCC(=O)Nc2cc([N+](=O)[O-])ccc2C)cc1	0.0%	-15.4%
COC(=O)c1ccc([C@@H]2C[C@H]3CN(Cc4cccnc4)C(=O)[C@]34CCCN24)cc1	6.0%	-5.3%
COc1ccc(OCC(=O)Nc2nc3ccc(NC(C)=O)cc3s2)cc1	nt	-25.3%
COc1ccc(CCNC(=O)C2CCCN(S(=O)(=O)c3cccc4nonc34)C2)cc1OC (stereo unspecified)	-1.0%	-20.3%
CCC(=O)N1CCCc2cc(S(=O)(=O)NCc3cccs3)ccc21	3.3%	4.8%
COc1ccc2[nH]cc(C(=O)CN3CCCC(C)C3)c2c1 (stereo unspecified)	-4.1%	-3.6%
COc1ccc(/C=N/n2c(-c3cc(C)[nH]n3)n[nH]c2=S)cc1	3.6%	-13.0%
Cc1c(Cl)cccc1NC(=O)CCCN1C(=O)CCC1=O	3.0%	-1.6%
Cc1nn(-c2ccccc2)c(Cl)c1/C=N/NC(=O)c1cccc(S(=O)(=O)N2CCCC2)c1	3.5%	-0.3%
CN(C)S(=O)(=O)c1ccc(N2C(=O)CC2(/C=C/c2ccccc2)C(=O)NC2CCCC2)cc1 (stereo unspecified)	2.7%	-4.2%
O=C(OCC(=O)N1CCCCCC1)c1ccc([N+](=O)[O-])cc1Cl	5.1%	15.3%
CC(=O)c1[nH]c(C)c(C(=O)NCCc2ccc(C)cc2)c1C	-2.6%	nt
c1ccc2c(c1)OCCOCCOCCOCCOc1ccccc1OCCOCCOCCO2	2.6%	0.8%
CCOc1c(Br)ccc2c1sc1nc[nH]c(=O)c12	2.9%	-3.9%
COCCn1c(SCC(=O)Nc2cc(OC)ccc2OC)nc2c(c1=O)SC(C)C2 (stereo unspecified)	nt	11.7%
Cc1ccc(/C=C/C(=O)O)cc1S(=O)(=O)N1CCCCC1	5.0%	-0.2%
O=C(OCC(=O)N1CCN(C(=O)c2ccco2)CC1)c1sc2ccccc2c1Cl	4.0%	3.3%
C=C(C)Cn1c(CCNC(=O)c2ccco2)nc2ccccc21	14.3%	-4.3%
CCC(=O)c1cn(CC(=O)Nc2ccc(C)cc2C)c2ccccc12	nt	-26.3%
CCC(C)NC(=O)CSc1nc2ccccc2c(=O)n1CCCC(=O)NCC1CCCO1 (stereo unspecified)	0.0%	-11.8%
COCCNC(=S)N=Nc1c(O)[nH]c2c(C)cc(C)cc12	0.0%	-0.9%
C/C(=N\NC(=O)c1ccccc1O)c1cccc(NC(=O)c2ccccc2)c1	nt	-5.9%
COc1ccc(OCc2nnc3n2N=C(c2ccc(C)cc2)CS3)cc1	1.3%	-21.8%
O=C(CSc1ncnc2scc(-c3ccccc3)c12)NC1CCS(=O)(=O)C1 (stereo unspecified)	0.0%	-8.7%
CC(NC(=O)OC(C)(C)C)C(=O)Oc1cc2oc(=O)cc(-c3ccccc3)c2cc1Cl (stereo unspecified)	2.6%	6.8%
O=C(CSc1nc(=O)n2ccccc2n1)OCc1ccccc1	nt	0.1%
CC(C)COC(=O)c1ccc2c(c1O)C(=O)c1ccccc1C2=O	3.0%	5.7%
Going on with the list.
SMILES	TDP1 block	N370S GC mod
COc1ccc(CN2C(=O)CN=C2Nc2cccc(C)c2C)cc1	1.0%	-1.7%
Cc1ccc2nc(N3CCN(C(=O)c4ccc(F)cc4)CC3)c(C#N)cc2c1	nt	-1.5%
CC1(C)NC(=O)N(CC(=O)OCC(=O)Nc2cc(S(=O)(=O)N3CCCCC3)ccc2Cl)C1=O	2.7%	-13.2%
OC(CNC1CCCC1)COc1c(F)cc(Br)cc1F (stereo unspecified)	-1.5%	-8.7%[12.8 µM]
O=C(Nc1cccc(S(=O)(=O)NC2=NCCC2)c1)c1ccc(OC(F)F)cc1	-0.7%	nt
Cc1cc(C)nc(NC(=O)c2cccc([N+](=O)[O-])c2)c1	0.6%	2.1%
Cc1ccc(S(=O)(=O)N2CCCN(C(=O)CNC(=O)c3ccccc3)CC2)cc1	-0.8%	-2.2%
COc1ccc(N2CCN(C(=O)CCN3C(=O)c4ccccc4S3(=O)=O)CC2)cc1	9.4%	-26.3%
CCc1ccc(CC2S/C(=C(\C#N)C(C)=O)NC2=O)cc1 (stereo unspecified)	5.8%	-21.3%
COc1cc(CC(=O)N(C)CC(=O)Nc2cc(C)ccc2C)cc(OC)c1OC	9.3%	-13.3%
Cc1ccc(NC(=O)[C@@H]2CCCN2S(=O)(=O)c2ccccc2F)cc1	2.5%	7.0%
COc1cc(-c2nnc(-c3cccs3)o2)cc(OC)c1OC	6.0%	11.6%
O=C(Cc1ccc(F)cc1)Nc1ccc(F)c([N+](=O)[O-])c1	4.0%	-4.7%
Cc1ccc(-c2ccc3nnc(SCC(N)=O)n3n2)cc1	0.6%	13.8%
CSc1nnc(N2C(=O)C(O)=C(C(=O)c3ccco3)C2c2cccc(Cl)c2)s1 (stereo unspecified)	0.4%	-4.9%
COc1ccccc1NC(=O)Cn1c(=O)n(CCc2c[nH]c3ccccc23)c(=O)c2cccnc21	0.0%	14.3%
C/C(=N/NC(=O)c1ccc(Cl)s1)c1cccnc1	6.4%	-0.2%
CCOC(CC(=O)NNC(=O)c1c(-c2ccccc2Cl)noc1C)OCC	1.2%	0.6%
O=C(COc1coc(CN2CCN(c3ccc(F)cc3)CC2)cc1=O)NCC1CCCO1 (stereo unspecified)	0.8%	-3.2%
CCCc1nc2n[nH]c(N)c2c2c1CCC2	6.2%	-11.9%
Cc1cc(C)cc(OCCN2CCOCC2)c1	5.0%	-0.4%
CCN(CC)C(=O)CSc1nnc(-c2cccs2)n1Cc1ccco1	4.0%	-8.5%
O=S(=O)(Nc1cccc2c1CCCC2)c1ccc(Cl)cc1	5.5%	-0.5%
Cc1cc(C(=O)CSc2cccc[n+]2[O-])c(C)n1-c1ccccc1	0.0%	1.9%

2 of the compounds above, in markdown:
| Compound | TDP1 block | N370S GC mod |
| --- | --- | --- |
| CCCc1nc2n[nH]c(N)c2c2c1CCC2 | 6.2% | -11.9% |
| Cc1cc(C)cc(OCCN2CCOCC2)c1 | 5.0% | -0.4% |

Other compounds.
SMILES	TDP1 block	N370S GC mod
Cc1cc(C)c(S(=O)(=O)c2cccc(Cl)c2)c(=O)[nH]1	nt	-5.5%
CC(=O)c1ccccc1NC(=O)C1CC(=O)N(c2ccc3c(c2)OCCO3)C1 (stereo unspecified)	2.7%	nt
CC(=O)Nc1cccc(NC(=O)C(C)N2c3cccc4cccc(c34)S2(=O)=O)c1 (stereo unspecified)	9.9%	-6.8%
CCS(=O)(=O)c1ncc(CO)n1CCc1ccccc1	5.7%	-1.7%
COc1ccc(-c2csc(-c3ccc(O)cc3)n2)cc1	-2.8%	-7.3%
CCCC12CN3CC(CCC)(CN(C1)C3c1c[nH]c3ccc(OC)cc13)C2=O (stereo unspecified)	-4.7%	nt
COC(=O)C1=C(SC)N(c2ccc(OC)cc2)C(c2ccccc2)CC1=O (stereo unspecified)	8.9%	-17.7%
COc1ccc(N(C)C(=O)C2CCCN2S(=O)(=O)c2cccc3nsnc23)cc1 (stereo unspecified)	0.8%	-8.0%

Whole records from above. Order of screens: TDP1 block	N370S GC mod
Record of CC(=O)c1ccccc1NC(=O)C1CC(=O)N(c2ccc3c(c2)OCCO3)C1 (stereo unspecified) = 2.7%	nt
Record of CC(=O)Nc1cccc(NC(=O)C(C)N2c3cccc4cccc(c34)S2(=O)=O)c1 (stereo unspecified) = 9.9%	-6.8%
Record of CCCC12CN3CC(CCC)(CN(C1)C3c1c[nH]c3ccc(OC)cc13)C2=O (stereo unspecified) = -4.7%	nt
Record of COc1ccc(N(C)C(=O)C2CCCN2S(=O)(=O)c2cccc3nsnc23)cc1 (stereo unspecified) = 0.8%	-8.0%
